# INS promoter inh = TRM-6 insulin promoter activity inhibition; TRM-6 cells (human fetal islet line), insulin promoter-eGFP reporter, imaging; reporter expression induced with tamoxifen; inhibition, % at 2 µM; 130,000 tested, 0.9% active;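 active = inhibition above the mean plus 3 SD, with well images judged a real hit on visual review, cut at about 60% in these data, passing the limit was not always enough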
# GALR2 agonist = GALR2 (human) receptor agonism; GALR2-expressing cells, agonist activation read-out; O43603; 140,000 tested, 0.48% active; activation, %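 (tested at 5 µM)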; AID 803;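 active = above mean plus 3 SD of all compounds, about 5% in these data, not always enough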;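 also: 0% = vehicle buffer wells and 100% = reference agonist at full effect; tested in CHO reporter cells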
# Target sequence (O43603 whole entry, looked up): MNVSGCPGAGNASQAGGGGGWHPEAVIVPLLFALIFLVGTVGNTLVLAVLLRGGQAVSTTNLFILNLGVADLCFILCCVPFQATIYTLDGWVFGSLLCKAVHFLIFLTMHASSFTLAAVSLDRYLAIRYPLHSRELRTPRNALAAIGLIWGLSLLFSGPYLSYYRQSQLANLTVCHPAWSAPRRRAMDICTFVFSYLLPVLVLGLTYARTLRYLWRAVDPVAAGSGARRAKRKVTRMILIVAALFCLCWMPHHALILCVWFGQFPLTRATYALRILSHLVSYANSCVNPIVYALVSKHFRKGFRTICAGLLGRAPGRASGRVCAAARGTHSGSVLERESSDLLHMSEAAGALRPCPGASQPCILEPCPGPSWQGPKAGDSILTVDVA
# RGS16-Gao = modulates binding between human RGS16 and Galphao. binding response (% of control), % at 10 µM. bead-based flow cytometry RGS16-Galphao binding, fluorescence; actives lie on both sides. AID 1441. 220,000 tested, 0.38% active;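 active = below 25% or above 175%, edge rows of some plates excepted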;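 also: Galphao activated by GDP with aluminum fluoride before binding; 100% = wells without compound and 0% = beads without RGS; some results beyond the cut were filed as inactive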
# Target sequence (O15492 whole entry, looked up): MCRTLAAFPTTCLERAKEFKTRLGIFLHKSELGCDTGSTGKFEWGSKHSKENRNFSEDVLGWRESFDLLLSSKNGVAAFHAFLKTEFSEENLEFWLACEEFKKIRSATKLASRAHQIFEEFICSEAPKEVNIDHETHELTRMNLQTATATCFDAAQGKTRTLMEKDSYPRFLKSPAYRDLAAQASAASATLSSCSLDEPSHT
# Target sequence (P09471 whole entry, looked up): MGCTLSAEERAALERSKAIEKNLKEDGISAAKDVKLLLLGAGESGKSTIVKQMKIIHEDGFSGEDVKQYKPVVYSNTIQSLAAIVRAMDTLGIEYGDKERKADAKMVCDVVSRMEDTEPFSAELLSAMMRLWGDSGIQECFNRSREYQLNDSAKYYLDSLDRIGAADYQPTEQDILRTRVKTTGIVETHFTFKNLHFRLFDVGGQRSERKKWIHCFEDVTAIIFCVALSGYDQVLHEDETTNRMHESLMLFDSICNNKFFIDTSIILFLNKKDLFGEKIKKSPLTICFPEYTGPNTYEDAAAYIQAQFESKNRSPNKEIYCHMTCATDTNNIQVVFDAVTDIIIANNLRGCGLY
# HSV augment = increases HSV replication in cells; HSV replication augmentation in cells, fold increase; maximum fold increase; 220,000 tested, 0.005% active;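 active = peak rise of 1.5-fold or more in the series; tested in PC3 cells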;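 also: first round at 10 µM; read as green reporter fluorescence; hits show the peak of a series up to 25 µM; 1 = signal of infected wells without compound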
# PKD1 inh = PKD1 (human) kinase inhibition. inhibition, %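 (about 10 µM by stock and volumes)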. 200,000 tested, 0.056% active. PKD1 kinase fluorescence polarization assay. AID 797;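 active = inhibition of 50% or more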;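 also: controls were vehicle for no effect and a reference inhibitor for full effect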
# INS promoter inh cell count = further read-out of INS promoter inh, marked with its call; normalized cell count, %; measured here: cell count, toxicity; reference of the scale not given here;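 cells exposed to compound for 48 h; stained nuclei by imaging scaled within each plate; lower means fewer cells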
# HSV augment primary fold = recorded beside HSV augment, whose call it bears; fold increase; compound at 10 µM; measured here: primary screen fold increase 10 uM; tested in PC3 cells;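 GFP signal in the first replicate; 1 = infected wells without compound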
# An asterisk follows results filed as active; i = inactive; . = no result given.
canonical_smiles,INS promoter inh,INS promoter inh cell count,GALR2 agonist,RGS16-Gao,HSV augment,HSV augment primary fold,PKD1 inh
Cc1cc([N+](=O)[O-])nn1CC(=O)Nc1ccc(F)cc1,.,.,.,102,i,0.81,-3
Cc1ccc(S(=O)(=O)NCCN=C(CN2CCOCC2)NS(=O)(=O)c2ccc(C)cc2)cc1,-15,103,-0.8,98,i,0.9,-2
CCNS(=O)(=O)c1ccc(CCC(=O)NCCC2=CCCCC2)cc1,-63,47,0.4,93,i,1.1,0
Cc1cccc(NC(=O)C2CCCN2C(=O)Oc2ccccc2)c1C (centres undefined),40,62,-3.9,102,i,0.91,-23
O=Cc1ccc(-c2ccc([N+](=O)[O-])cc2Cl)o1,.,.,.,100,i,0.93,-1
O=C(NCc1ccccc1)C1CCN(S(=O)(=O)c2ccc(Cl)cc2)CC1,.,.,.,113,i,1.1,6
CCCCCCn1c(=O)c(C(=O)N/N=C/c2cccc(F)c2)c(O)c2ccccc21,-36,73,.,110,i,0.9,3
COc1ccc(CC(=O)Nc2cc(Cl)ccc2C(=O)O)cc1,50,131,.,98,i,0.93,10
COc1ccc(NC(C)=O)cc1NC(C)C(=O)Nc1ccc(F)cc1 (centres undefined),.,.,-1.8,102,i,0.94,-8
O=C(Nc1c(-c2ccccc2)nc2sccn12)c1ccccc1,.,.,-0.3,100,i,1.1,-9
Cc1ccc(C(=O)N/C(=C/c2cccs2)C(=O)NCC2CCCO2)cc1 (centres undefined),.,.,.,104,i,1.1,-3
COCCn1c(Cc2ccccc2)nnc1SCC(=O)NC(C)(C)C,12,114,-2.3,112,i,0.98,6
Cc1sc(NC(=S)NC(=O)C(C)(C)C)c(C(N)=O)c1C,.,.,-1.9,98,i,1.2,8
O=C(c1csc(Nc2ccccc2Cl)n1)N1CCCC1,-33,106,-2.3,97,.,.,-37
COc1ccccc1NC(=O)C1=C(C)Nc2ncnn2C1c1ccccc1C (centres undefined),-19,153,-1.2,88,i,0.87,9
O=C1CS/C(=N/N=C2CCCC2)N1,21,144,.,103,i,0.96,-3
CCCCNC(=O)/C=C/c1cccs1,-38,107,0.3,114,i,1,-17
CCOc1ccc(-n2c(SCC(N)=O)nnc2-c2cccnc2)cc1,.,.,.,98,i,1.1,.
Cc1cc(NC(=O)COc2cccc(C)c2C)no1,.,.,-0.8,107,i,0.86,2
CCCCCCNCc1cccc(Br)c1,.,.,-3.2,103,i,0.72,12
CCOC(=O)c1ccccc1NC(=O)Cn1cnc2c(cnn2-c2ccccc2)c1=O,62,119,0.2,110,i,1,-2
O=C(c1ccc(Sc2cccc(Cl)c2)c([N+](=O)[O-])c1)N1CCN(c2ccccn2)CC1,-42,99,.,109,i,0.85,-6
CCOc1cc(CNc2ccc(O)cc2)ccc1OCc1ccc(Cl)cc1Cl,-38,90,-1.7,94,i,0.94,1
Nc1c(Sc2ccccc2)c(=O)[nH]c(=O)n1Cc1ccccc1,35,115,-2.0,.,i,0.94,-7
CC(SC(=S)N(C)Cc1cccs1)C(=O)O (centres undefined),-3,124,0.8,49,i,1,-9
CN1CCN(c2ccc([N+](=O)[O-])cc2C(=O)c2ccc(Br)cc2)CC1,7,86,-1.5,94,i,0.57,5
O=C1N/C(=N/S(=O)(=O)c2ccccc2)S/C1=C/c1cccnc1,.,.,0.2,99,i,1.1,0
Nc1nonc1C(=O)NCCNCc1cc(Br)ccc1OCc1ccccc1F,45,54,-1.9,90,i,0.9,1
CCOC(=O)CSc1nnc(CNc2ccc(F)cc2)o1,.,.,-0.2,98,i,0.9,-12
O=C(NC1CC2CCCC(C1)N2C(=O)Nc1ccc(Cl)c(C(F)(F)F)c1)C1CC1 (centres undefined),3,155,-0.3,103,i,0.95,-3

# Looked up above.
# `O=C1CS/C(=N/N=C2CCCC2)N1` in HSV augment primary fold = 0.96
# `O=C(NC1CC2CCCC(C1)N2C(=O)Nc1ccc(Cl)c(C(F)(F)F)c1)C1CC1` (centres undefined) in HSV augment primary fold = 0.95
# `Nc1c(Sc2ccccc2)c(=O)[nH]c(=O)n1Cc1ccccc1` in PKD1 inh = -7
# `CCOc1ccc(-n2c(SCC(N)=O)nnc2-c2cccnc2)cc1` in RGS16-Gao = 98
# `COCCn1c(Cc2ccccc2)nnc1SCC(=O)NC(C)(C)C` in INS promoter inh = 12

# (further entries)
canonical_smiles,INS promoter inh,INS promoter inh cell count,GALR2 agonist,RGS16-Gao,HSV augment,HSV augment primary fold,PKD1 inh
CCCC(CCC(=O)OC)(C(=O)OCC)c1csc(N)n1 (centres undefined),9,61,-1.2,95,i,1.1,-1
COc1ccc(CCNC(=O)C2CC(c3cccc([N+](=O)[O-])c3)=NO2)cc1 (centres undefined),49,135,0.8,99,i,0.91,3
Cc1ccc(-n2c(SCC(=O)Nc3cc(C)on3)nc3c(c2=O)SC(C)C3)cc1 (centres undefined),.,.,-0.8,102,i,0.99,9
COc1ccc(-c2nnc(NC(=O)c3ccc(S(=O)(=O)N4CCc5ccccc5C4)cc3)o2)cc1,-23,141,-2.1,99,.,.,7
Cc1c(Cl)c([N+](=O)[O-])nn1CC(=O)NC(C)C1CC2CCC1C2 (centres undefined),-49,68,-4.6,101,i,0.73,-2
COc1cc(Cn2ccnc2)c(OC)cc1Cn1ccnc1,-61,129,-0.6,142,i,0.92,3
COC(=O)c1cnc(Oc2c(Cl)cc(N)cc2Cl)cc1C(F)(F)F,.,.,.,97,i,0.78,.
Nc1nc(SCC(=O)Nc2ccc(Cl)c(S(=O)(=O)N3CCOCC3)c2)n[nH]1,.,.,.,102,i,1.1,.
Cc1cc2nc[nH]c2cc1[N+](=O)[O-],41,94,.,107,i,0.94,-11
COc1ccc(OC)c(-c2csc(NC(=O)C3=NNC(=O)CC3)n2)c1,.,.,.,98,i,0.93,2
Cc1ccc(CN2CCNC(=O)C2CC(=O)N(C)C2CCCCC2)o1 (centres undefined),.,.,.,100,i,0.96,-1
Cc1ccc(NC(=O)N(CCCN2CCOCC2)Cc2cc3cc4c(cc3[nH]c2=O)OCO4)cc1,-5,162,0.2,111,.,.,-4
CC(C)NC(=S)NC(=O)/C=C/c1cccc2ccccc12,-7,88,0.7,57,i,0.72,-2
CCOC(=O)Cc1csc(NC(=O)CSc2nnc(-c3ccc(C)cc3)o2)n1,.,.,-2.7,104,i,0.97,-13
Cc1ccc(S(=O)(=O)NCCC(C)C)cc1[N+](=O)[O-],8,92,-0.7,102,i,0.95,1
CCNC(=S)NNC(=O)c1cccs1,-24,119,-1.9,104,i,1,-2
COC(=O)C1=CN(C2CC2)C=C(C(=O)OC)C1c1ccccc1OC,.,.,11,104,i,1,-1
CCOC(=O)Cc1cc(=O)n2[nH]c(-c3ccc(C)cc3)cc2n1,-26,98,-2.4,94,i,0.94,6
O=C(NCC1CCCO1)/C(=C/c1cn(-c2ccccc2)nc1-c1cccnc1)NC(=O)c1ccccc1 (centres undefined),14,67,.,103,i,0.99,-1
CCC(NC(=O)c1ccccc1NC(=O)c1ccco1)C(=O)O (centres undefined),.,.,-0.1,101,i,0.99,2
COC(=O)c1ccc2c(=O)n(Cc3ccco3)c(SCC(=O)Nc3ccc(C)c(Cl)c3)nc2c1,26,91,-4.0,105,i,0.74,-12
COc1cccc(C(=O)Nc2ccc(Oc3cccc(C(F)(F)F)c3)nc2)c1,.,.,.,93,i,0.92,.
Cc1ccc(CSCC(=O)N2CCN(c3ccc(F)cc3)CC2)cc1,11,85,-2.6,99,i,1.1,-6
OCCNC(=S)Nc1ccc(Oc2ccccc2)cc1,.,.,.,97,i,0.88,-9
COC(=O)c1c(NC(=O)c2ccnn2C)sc(C)c1C,60,191,-1.1,.,i,1.1,-11
CCCc1ccccc1OCCNC(=O)c1cc(=O)n(C)c(=O)n1C,8,88,.,102,i,0.98,1
O=C(NC1CCCC1)C(Cc1ccccc1)n1cccc1 (centres undefined),.,.,-1.0,101,i,1,-8
O=C(CN1C(=O)NC2(CCSC2)C1=O)NCc1ccccc1 (centres undefined),.,.,.,109,i,1,-1
CCCc1cc(=O)[nH]c(N/N=C/C=C\c2ccccc2)n1,50,71,.,103,i,0.96,0
CNC(=O)COC(=O)/C=C/c1cn(-c2ccccc2)nc1-c1ccc(C)o1,.,.,.,98,i,0.99,.

# As a working copy, some entries already given:
canonical_smiles,INS promoter inh,INS promoter inh cell count,GALR2 agonist,RGS16-Gao,HSV augment,HSV augment primary fold,PKD1 inh
Cc1cc([N+](=O)[O-])nn1CC(=O)Nc1ccc(F)cc1,.,.,.,102,i,0.81,-3
Cc1ccc(S(=O)(=O)NCCN=C(CN2CCOCC2)NS(=O)(=O)c2ccc(C)cc2)cc1,-15,103,-0.8,98,i,0.9,-2

# Remaining list, next part
canonical_smiles,INS promoter inh,INS promoter inh cell count,GALR2 agonist,RGS16-Gao,HSV augment,HSV augment primary fold,PKD1 inh
Nc1nc(NCCCN2CCOCC2)nc(Nc2cccc(Cl)c2)c1[N+](=O)[O-],.,.,.,118,i,0.85,.
CCOC(=O)CON1C(=O)c2ccccc2C1=O,7,129,-2.6,97,i,0.96,-6
Cc1cccc(S(=O)(=O)Nc2nc3ccccc3nc2NCc2ccco2)c1,-25,79,-0.4,286,.,.,6
Cc1nc2ccccc2c(=O)n1NC(=O)c1c(O)c2c(n(CC(C)C)c1=O)CCCC2,35,58,-1.2,102,i,1.1,-9
O=C(CCNc1ccc(Cc2ccncc2)cc1)c1ccc([N+](=O)[O-])cc1,.,.,.,100,i,0.79,2
COC(=O)N/N=C/c1sc(N2CCCCC2)nc1-c1cccs1,.,.,.,97,i,0.97,-3
CC(OC(=O)CCc1nc2ccccc2c(=O)[nH]1)C(=O)NCc1ccc2c(c1)OCO2 (centres undefined),.,.,0.3,105,.,.,1
Cc1oncc1C(=O)NC(C)C,.,.,-2.9,85,i,1.1,0
COc1cccc(C(=O)NNC2=CC(=O)CC(C)(C)C2)c1,-16,122,-0.1,26,i,0.95,-2
CCOC(=O)C1=C(N)Oc2cc(O)ccc2C1c1ccc([N+](=O)[O-])cc1 (centres undefined),-82,81,.,101,i,0.87,-9
Cn1cccc1/C=N/NC(=O)c1ccc[n+]([O-])c1,.,.,.,102,i,0.87,2
Cn1c(=O)oc2cc(S(=O)(=O)Nc3cccc4c3CCCC4)ccc21,3,105,-1.8,4,i,1.2,-15
NC(=O)Nn1c(CCC(=O)O)ccc1-c1ccc(Cl)cc1,.,.,.,91,i,0.86,.
O=C(O)c1ccc(N2CCCC2=O)cc1,.,.,0.0,112,i,1,5
COC(=O)CSc1nc2cc3c(cc2cc1C)OCO3,0,86,.,106,i,0.9,3
Cc1ccc(NCc2nnc(SCC#N)o2)c(C)c1,-9,135,-3.3,106,i,1,-5
Cc1ccc(CSCC(=O)NCc2cccs2)cc1,53,126,.,97,i,0.94,-9
Cc1cc(NC(=O)c2ccc(S(=O)(=O)N3CCCC3)cc2)nc2c1c(=O)oc1ccccc12,-93,90,-1.8,96,i,0.97,-3
CCOC(=O)C1(CCCc2ccccc2)CCN(CCCn2cccn2)CC1,.,.,.,100,i,0.97,-2
CCc1cc2cc(C(=O)N3CCN(Cc4ccccc4)CC3)sc2s1,29,42,-2.1,103,i,0.93,-4
O=C1CCC/C1=C/Nc1ccc(Cl)cc1,82*,90*,.,106,i,1,-3
CN1CCN(NC(=O)CN2C(=O)/C(=C/c3ccccc3Cl)SC2=S)CC1,.,.,-0.9,107,i,0.99,-14
Cc1cccc(CSC2=NCCN2C(=O)c2ccco2)c1,.,.,-2.1,108,i,0.76,-14
CCN(CC)CCNCc1ccc(-c2ccc(Cl)cc2)o1,16,115,-0.7,104,i,1,-2
COc1ccc(S(=O)(=O)N2CCN(Cc3ccccc3)CC2)cc1,.,.,-2.6,105,i,0.85,-10
O=C(NCCc1ccc(F)cc1)c1ccc([N+](=O)[O-])cc1,-11,107,.,100,i,1.1,12
CCOc1cc(/C=C2/C(=O)ON=C2C)ccc1OCc1ccccc1,-129,87,.,79,i,0.97,10
CC1=C(C(=O)OC2CCCCC2)C(c2ccc(C)o2)C2=C(CCCC2=O)N1 (centres undefined),.,.,-1.4,108,i,0.92,-18
CC(=O)c1sc(-c2ccc(F)cc2F)nc1C,.,.,.,96,i,0.94,.
CC1(C)Cc2nc3sc4c(OCc5ccccc5)ncnc4c3cc2CO1,-113,115,-1.4,94,i,0.76,-7
O=C(NCc1ccccn1)c1ccc(NC(=O)c2ccco2)cc1,-274,86,-1.2,99,i,1.1,-3
COc1cc(NC(=O)CSc2nc3c(C)ccc(C)c3cc2C)c(C(=O)O)cc1OC,-23,97,-1.2,103,.,.,-1
